rRNA inh HTS = selective bacterial rRNA inhibition in E. coli. 350,000 tested, 1.6% active. E. coli WT GFP vs humanized-ribosome RFP mutants, fluorescence, 24 h; hits give low values; DMSO median 0, no signal -100. GFP signal change (wild-type ribosome), % (concentration not given with the values). AID 720706;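 active = significant combined selectivity score with lowered wild-type GFP, culture density cut under 30%, mutant RFP and density less affected; inactive = any of these conditions unmet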; also: one replicate is shown; some compounds called inactive have numbers as strong as hits
Ecoli growth = E. coli growth inhibition; 330,000 tested, 0.21% active; OD600 absorbance (concentration not given with the values); AID 1053175; Escherichia coli growth, OD600, 23 h; hits give low values;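 active = OD600 absorbance below the run mean of sample wells minus 3.6 SD, in any replicate, cut at about 0.56 in these data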;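 also: stock transfer was 300 nL into about 60 µL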
ALR inh = blocks human ALR sulfhydryl oxidase activity. purified ALR, DTT oxidation, H2O2 HRP-luminol luminescence. inhibition, % (concentration not given with the values). 290,000 tested, 3.8% active. AID 485317;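 active = mean and each replicate at 75% or more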;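 also: stock transfer was 7.5 nL into about 7.5 µL; 0% = neutral wells and 100% = wells with inactivated enzyme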
B2AR ag = human beta-2 adrenergic receptor agonism by FAP; Am2.2-beta2AR cells, FAP receptor internalization, flow cytometry; reference of the scale not given here; 340,000 tested, 0.43% active; response, % (no concentration beside the values); P07550;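 active = response above a set limit, near 3 SD of response in nonfluorescent compounds, cut at about 42% in these data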;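 also: stock transfer was 100 nL into about 11 µL; a reference agonist was the positive control; negative values mostly stem from fluorescent compounds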
UCH37 inh = human UCH37 deubiquitinating enzyme inhibition | Q9Y5K5 | purified proteasome/UCH37, Ub-AMC cleavage fluorescence | inhibition, % (concentration not given with the values) | 330,000 tested, 0.33% active;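 active = mean of two replicates above 20%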;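 also: 0% = compound-free wells with enzyme and 100% = wells lacking proteasome; stock transfer was 100 nL into about 20 µL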
Target sequence (Q9Y5K5 whole entry, looked up): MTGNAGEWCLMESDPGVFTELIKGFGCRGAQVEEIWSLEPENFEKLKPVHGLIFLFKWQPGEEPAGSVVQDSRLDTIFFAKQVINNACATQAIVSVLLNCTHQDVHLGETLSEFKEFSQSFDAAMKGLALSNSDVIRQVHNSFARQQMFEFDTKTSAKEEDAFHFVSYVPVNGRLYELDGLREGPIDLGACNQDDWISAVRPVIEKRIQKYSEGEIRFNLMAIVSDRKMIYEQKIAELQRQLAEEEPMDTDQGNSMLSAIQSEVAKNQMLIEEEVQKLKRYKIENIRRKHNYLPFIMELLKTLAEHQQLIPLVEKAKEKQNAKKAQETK
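Schedule: 30 min plus 25 min, room temperature / Material: human UCH37 within purified proteasomes / Technique: AMC fluorescence intensity at 355/460 nm / Buffer or medium: pH 7.4 Tris-HCl (50 mM) with ovalbumin, ATP-MgCl2, DTT / Controls: wells without proteasome as full block, compound-free enzyme plus substrate as uninhibited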
HNF4A DNA FP = change in binding of human HNF4 alpha to DNA; activity change, % at 10 µM; 360,000 tested, 0.3% active; HNF4a-FITC DNA binding, fluorescence polarization, 1 h; P41235; AID 1224865; in the data active = activity change above about 30%, passing the limit was not always enough;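 also: controls were the assay level and a saturating level of protein; the project sought stronger binding though the title names inhibitors; some compounds called inactive have numbers as strong as hits; positive values seem to mean higher polarization but the record does not say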
Target sequence (P41235 whole entry, looked up): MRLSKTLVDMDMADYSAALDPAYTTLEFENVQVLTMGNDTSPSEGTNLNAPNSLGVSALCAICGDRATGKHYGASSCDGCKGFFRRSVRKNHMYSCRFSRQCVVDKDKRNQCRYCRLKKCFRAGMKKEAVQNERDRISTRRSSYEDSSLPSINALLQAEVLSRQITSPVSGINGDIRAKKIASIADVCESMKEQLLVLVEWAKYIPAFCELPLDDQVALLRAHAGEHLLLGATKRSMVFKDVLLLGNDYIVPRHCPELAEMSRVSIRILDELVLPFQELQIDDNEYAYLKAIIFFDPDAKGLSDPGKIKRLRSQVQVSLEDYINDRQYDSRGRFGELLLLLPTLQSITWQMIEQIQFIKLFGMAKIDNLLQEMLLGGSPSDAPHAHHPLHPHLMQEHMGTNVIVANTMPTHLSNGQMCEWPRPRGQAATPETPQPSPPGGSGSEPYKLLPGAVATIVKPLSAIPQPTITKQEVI
FGF22 binding = FGF22 (human) thermal shift binding | recombinant FGF22 thermal shift, SYPRO orange fluorescence; percent of sucrose octasulfate shift, DMSO zero | calls only at 9.99 µM | 340,000 tested, 1.5% active;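 active = melting point raised past a set limit in the mean and every replicate; three in four hits are not shown here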
Target sequence (Q9HCT0 whole entry, looked up): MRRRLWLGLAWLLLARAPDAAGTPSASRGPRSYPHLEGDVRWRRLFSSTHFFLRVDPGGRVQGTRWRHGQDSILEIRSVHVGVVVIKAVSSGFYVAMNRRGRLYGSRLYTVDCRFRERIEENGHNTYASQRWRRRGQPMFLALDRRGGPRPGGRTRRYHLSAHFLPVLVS
rRNA inh HTS OD600 = also measured in rRNA inh HTS; calls as there; OD600 change, %; measured here: OD600 growth;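 optical density of the mix in the first replicate; 0 = DMSO median and -100 = no signal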
rRNA inh HTS RFP = also measured in rRNA inh HTS; calls as there; RFP signal change, %; measured here: RFP humanized mutant strains;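 first replicate; 0 = DMSO median and -100 = no signal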
The depositor's hits bear a star; i = inactive; nt = no result given. This is a subset, so the mix of outcomes need not match the whole.

no.	Molecule	rRNA inh HTS	rRNA inh HTS OD600	rRNA inh HTS RFP	Ecoli growth	ALR inh	B2AR ag	UCH37 inh	HNF4A DNA FP	FGF22 binding
1	O=C(OCCN1CCOCC1)c1ccc2c(c1)OCCO2	nt	nt	nt	0.71	-2	-5	2.3	0.6	nt
2	Nc1cccc2c1C(=O)c1ccc(Cl)cc1C2=O	nt	nt	nt	0.71	nt	-12	2.7	19	i
3	COc1cc(C(=O)Oc2cccc(C=O)c2)cc(OC)c1OC	nt	nt	nt	0.7	-3	0	2.7	-0.9	nt
4	Cc1ccccc1-c1cc(C(=O)NCc2ccc(OC(F)(F)F)cc2)n(CC2CC(c3cccnc3)=NO2)n1 (stereo unspecified)	1	-22	0.9	0.7	1	13	0.5	-3.3	i
5	Cn1c(SCC(=O)NC2CCCCC2)nnc1-c1ccc(N)cc1	9	9	1.4	0.69	2	-2	-0.4	2.5	nt
6	Cc1ccc(C)c(S(=O)(=O)N(C)c2ccc(OC(=O)C3CCN(C(=O)c4ccc(F)cc4)CC3)cc2)c1	1	-2	6.2	0.74	nt	8	2.0	-3.5	i
7	COC(=O)c1ccccc1NC(=O)CN(Cc1ccc(Cl)cc1)S(C)(=O)=O	-50	-67	-23	0.66	nt	5	0.0	0.9	i
8	Cc1cc(C)c(NC(=O)CSc2nc3ccc(N4C(=O)c5ccccc5C4=O)cc3s2)c(C)c1	25	19	1.5	0.71	-4	33	1.5	1.4	i
9	O=C(CSc1ccccc1C(=O)O)c1ccc(Cl)cc1	-28	-26	-6.4	0.65	13	-5	1.0	-0.7	i
10	CCCn1c(N)c(N(CCOC)C(=O)CSCC(=O)Nc2ccc(OC)cc2)c(=O)[nH]c1=O	3	1	0.3	0.65	-9	1	-0.4	-4.2	i
11	O=C(Nc1nc2c(s1)CCCC2)c1cc(-c2ccc3c(c2)OCO3)nc2ccccc12	nt	nt	nt	0.68	-8	nt	-32	nt	nt
12	CC1(C)Cc2cccc(OCC(=O)Nc3cc(C(F)(F)F)ccc3N3CCOCC3)c2O1	nt	nt	nt	0.76	-2	11	1.5	1.6	nt
13	COc1ccc(C(C)=O)cc1COC(=O)c1ccc(S(=O)(=O)N2CCOCC2)cc1	2	2	-2.2	0.69	-2	5	1.2	4.4	nt
14	CC(C)Oc1cccc(C(=O)C2CCCN(C(=O)c3cc(C4CC4)[nH]n3)C2)c1 (stereo unspecified)	-5	-14	3.2	0.66	-2	-13	0.5	-1.4	i
15	COc1ccc(NC(NC(=O)c2cccnc2)C(Cl)(Cl)Cl)cc1 (stereo unspecified)	-4	-4	-3.2	0.67	99*	nt	3.5	0.8	i
16	CCNc1nc(NCC)n2c(SCC(=O)Nc3ccccc3OC(F)F)nnc2n1	9	5	2.4	0.66	-3	-3	3.5	0.7	i

Retrieved by compound from above (two):
no.	Molecule	rRNA inh HTS	rRNA inh HTS OD600	rRNA inh HTS RFP	Ecoli growth	ALR inh	B2AR ag	UCH37 inh	HNF4A DNA FP	FGF22 binding
10	CCCn1c(N)c(N(CCOC)C(=O)CSCC(=O)Nc2ccc(OC)cc2)c(=O)[nH]c1=O	3	1	0.3	0.65	-9	1	-0.4	-4.2	i
15	COc1ccc(NC(NC(=O)c2cccnc2)C(Cl)(Cl)Cl)cc1 (stereo unspecified)	-4	-4	-3.2	0.67	99*	nt	3.5	0.8	i

(list continues)
no.	Molecule	rRNA inh HTS	rRNA inh HTS OD600	rRNA inh HTS RFP	Ecoli growth	ALR inh	B2AR ag	UCH37 inh	HNF4A DNA FP	FGF22 binding
17	Cc1nc(C)c(C(=O)N/N=C/c2ccco2)s1	0	3	-3.5	nt	-11	0	nt	0.3	i
18	Cc1cccc(OCC(=O)OC2CCN(C)CC2)c1	nt	nt	nt	0.73	6	-3	4.7	-4.0	nt
19	O=C(CN(c1ccc(F)cc1)S(=O)(=O)c1ccc2c(c1)OCCO2)N1CCOCC1	3	8	1.9	0.76	-2	-3	6.1	2.5	i
20	CCCCON1C(=O)c2cccc3cccc(c23)C1=O	-7	-3	-6.0	0.66	-2	2	-81	2.3	i
21	Cc1ccc(N(C(=O)c2csnn2)C(C(=O)NC2CCCC2)c2ccccn2)cc1 (stereo unspecified)	1	2	-5.0	0.69	-5	0	0.8	-4.1	i
22	COc1ccc(NC(=O)CCC(=O)NCCO)cc1	22	22	-0.9	0.72	-3	-1	4.0	6.0	i
23	O=C(NCc1ccccc1F)c1cccc(S(=O)(=O)NCc2ccccc2)c1	5	9	-0.1	0.71	1	3	-2.8	-0.1	i
24	CCOc1ccc(S(=O)(=O)NCCC(=O)NCCc2ccc(OCC)c(OCC)c2)cc1	-7	-3	2.2	0.7	3	-7	1.7	0.8	i
25	C/C(=N\NC(=O)c1c(C)nc2ccccn12)c1ccc(C(C)(C)C)cc1	-2	3	-3.8	nt	-9	-1	nt	0.2	i
26	Cc1ccc(NC(=O)CN2C(=O)CSc3ccc(S(=O)(=O)N4CCCCC4)cc32)cc1	-15	-27	-4.3	0.65	-5	2	1.7	1.2	i
27	COc1ccc(OC)c(CN2CCC(CO)(CCOc3ccccc3)CC2)c1	7	-14	3.1	0.71	-5	4	-1.1	4.0	i
28	CCn1c(Cc2ccc(OC)cc2)nc2ccccc21	0	6	-0.1	0.61	-7	-5	1.9	-1.3	i
29	CN(C)c1nc2n(c(=O)n1)C(C#N)CS2 (stereo unspecified)	nt	nt	nt	0.7	-20	7	1.1	-1.0	nt
30	CCOC(=O)c1c(C)[nH]c2cc(Br)c(OC)cc12	nt	nt	nt	0.79	0	0	5.2	1.7	nt
31	Brc1ccc(-c2nnc3n2CCCCC3)cc1	nt	nt	nt	0.79	-3	-2	3.2	1.0	nt
32	O=C(NCCc1cccc(Cl)c1)c1ccc(OC2CCN(Cc3ccccn3)CC2)cc1	-2	-15	3.0	nt	nt	-11	nt	-0.1	i
33	CCN(CC)c1ccc(NC(=O)CCCCCN2C(=O)c3ccccc3C2=O)cc1	nt	nt	nt	0.69	99*	-4	1.0	2.7	nt
34	COc1ccc(NC(=O)CS(=O)(=O)Cc2ccccc2)c([N+](=O)[O-])c1	12	9	3.8	0.69	8	-3	3.0	0.9	i
35	CCn1ccc(C(=O)N2CCN(c3ncccn3)CC2)n1	nt	nt	nt	0.71	8	4	-1.3	-1.7	i
36	COc1ccccc1C1=NOC(Cn2c(NCC3CCCO3)nc3c2c(=O)n(C)c(=O)n3C)C1 (stereo unspecified)	5	5	-0.5	0.62	3	-4	2.8	-3.7	i
37	N=c1c2c3c(sc2ncn1Nc1ccccc1)CCC3	-17*	0.2*	-2.1*	0.63	6	-14	2.7	0.8	i
38	CC1CC(C)CN(C(=O)COC(=O)c2cccc(S(=O)(=O)N(C)c3ccccc3)c2)C1 (stereo unspecified)	-8	-15	0.4	0.69	nt	9	1.9	-1.8	i
39	O=C(O)C1=C[C@@H](c2ccccc2)C[C@@H](OCCCCO)O1	-10	-8	12	nt	-4	-4	2.3	-5.7	i
40	COc1ccccc1CNC(=O)CSc1nc(-c2ccccc2)cn1N	nt	nt	nt	0.72	-4	4	1.1	-6.0	nt
41	CC(=O)Nc1ccc(S(=O)(=O)NCCC(=O)Nc2ccc(C)cn2)cc1	10	13	1.8	0.65	1	-1	-1.2	-1.0	i
42	COC(=O)NCCc1cc(OC)c(OC)cc1S(=O)(=O)N1CC(=O)Nc2ccccc21	11	10	3.9	0.68	-3	-3	1.2	2.2	i
43	COc1ccc2c(c1)C(=O)O[C@@H](c1ccccc1)C[C@@H](O)C(=O)CC2	5	-7	-0.3	nt	nt	nt	nt	1.7	i
44	CCN1CCN(CC(=O)Nc2cccc(C)c2C)C(=O)C1=O	8	20	-0.9	nt	-10	1	nt	3.7	i
45	O=C(N/N=C1\CCCc2ccccc21)c1cccc([N+](=O)[O-])c1	13	6	-0.9	nt	-1	6	nt	3.1	i
46	Cn1c(=O)c2c(nc(NCCc3ccccc3)n2Cc2ccc(F)cc2)n(C)c1=O	0	-8	2.4	0.79	nt	2	8.3	-1.4	i
47	O=C(C(=O)N1CCN(C(=O)OCc2ccccc2)CC1)c1cccs1	-8	-6	4.6	nt	nt	nt	nt	-1.3	i
48	Cc1ccc(C(=O)NNC(=O)c2ccc(SCC3CCCO3)c([N+](=O)[O-])c2)cc1 (stereo unspecified)	8	8	-5.4	0.66	0	-6	5.9	3.4	i
49	CCn1c(CSc2nc3ccccc3[nH]2)nc2cc(C(=O)O)ccc21	nt	nt	nt	0.68	58	0	-54	2.7	nt
50	COc1ccc(S(=O)(=O)N2CCC3(CC2)OCCN3S(=O)(=O)c2ccccc2)cc1OC	-1	-7	-0.6	0.71	-5	10	2.7	-2.4	i
51	Cc1ccc(-c2csc(NC(=O)CCNC(=O)c3ccco3)n2)cc1	-36*	-1.8*	-2.5*	0.65	0	-3	-1.2	40*	i
52	COc1ccc([C@H]2CC(=O)C=C(c3ccc(C)cc3)C2)cc1	-27	-37	-17	nt	1	-20	1.2	-0.6	i
53	Cc1ccc(C)c2[nH]c(=O)c(CCNC(=O)Cc3cccs3)cc12	20	18	4.3	0.75	nt	1	-4.0	-2.6	i
54	COC(=O)c1ccc(NC(=S)N2CCN(C)CC2)cc1	-1	-3	-3.2	0.67	-5	0	5.2	7.9	i
55	Cc1cccc(N2CCN(C(=S)c3ccc([N+](=O)[O-])cc3)CC2)c1	5	5	-3.5	0.69	-3	1	-4.1	0.4	i
56	O=C(Oc1ccnc2cc(Cl)ccc12)N1CCCCCC1	nt	nt	nt	0.71	47	-7	5.9	2.5	nt
57	Cc1nnc(NC(=O)C(C)Sc2nnc(-c3ccco3)n2C(C)C)s1 (stereo unspecified)	6	1	1.3	0.66	0	-2	2.3	0.8	i
58	COc1cc(NC(=O)C2(C)CCCN(C(C)C)C2)cc(OC)c1OC (stereo unspecified)	2	8	-5.2	nt	nt	nt	nt	-6.4	i
59	CS(=O)(=O)c1ncc(Cl)c(C(=O)Nc2ccc3ccccc3c2)n1	-22	-19	-18	0.7	nt	48*	4.5	-3.7	i
60	CCOC(=O)c1cccc(N2C(=O)Nc3ccccc3N2O)c1	nt	nt	nt	0.69	-4	2	-1.5	-1.5	nt
61	O=C(CNC(=O)c1ccc2c(c1)OCO2)Nc1cccc(Br)c1	-3	-11	1.2	0.66	5	-3	1.2	-2.8	i
62	CCC(=O)NC(=S)Nc1ccc(NC(=O)c2ccccc2[N+](=O)[O-])cc1	-22*	-10*	-8.4*	0.72	nt	5	4.6	6.4	i
63	CCOC(=O)N1CCN(C(=O)C2CCCN(c3ncnc4c3nc3n4CCCCC3)C2)CC1 (stereo unspecified)	-5	-4	-0.2	0.67	-2	-9	3.8	0.3	i
64	COc1cc(S(=O)(=O)Nc2ccccc2)ccc1NC=O	nt	nt	nt	0.66	-65	3	4.0	-0.5	nt
65	CCN(C(=O)CN1CCN(c2ccccc2OC)CC1)c1c(N)n(Cc2ccccc2)c(=O)[nH]c1=O	nt	nt	nt	0.69	7	-2	-2.2	2.7	nt
66	Cc1ccc(-c2noc(/C=C/c3ccccc3)n2)cc1	nt	nt	nt	0.67	-9	7	-0.3	-0.6	nt
67	Cc1cccc(C(=O)NCC(=O)OCC(=O)N2CCN(S(=O)(=O)c3ccc(C)cc3C)CC2)c1	-2	-11	4.8	0.63	nt	4	1.3	-4.5	i
68	Nc1nonc1-n1nnc(C(=O)N/N=C/c2ccc(OCc3ccccc3)cc2)c1CN1CCCCC1	4	7	-1.6	nt	-8	-11	nt	3.1	i
69	O=C(COC(=O)/C=C/c1ccccc1[N+](=O)[O-])NCc1ccco1	nt	nt	nt	0.69	-1	-2	0.6	2.2	i
70	CCc1nnc(NC(=O)C2CCN(c3nccc(C)n3)CC2)s1	nt	nt	nt	0.7	-1	-5	-0.5	1.2	nt

Assay outcomes from PubChem.
